Vaccinia Venus: qHTS for Stage-Specific Inhibitors of Vaccinia Orthopoxvirus: Venus Reporter Primary qHTS; Vaccinia virus Venus reporter expression, fluorescence; Potency, µM (series often up to 36.5 µM), inactives show at the top dose activity change, negative = inhibition, usual class: inhibitors; 0.46% of 330,000 active; AID 720580, 2013; active means well fitted inhibition curve with a large enough effect; inconclusive means small, poorly fitted or top-dose-only effect; inactive means no such curve, though single readings can be large or run the other way; tested in A549 cells; note: nearly all actives have a fitted effect of over 30% in size; inactives centre near -10
VACV mCherry inh: qHTS for Stage-Specific Inhibitors of Vaccinia Orthopoxvirus: mCherry Reporter Primary qHTS | Vaccinia virus mCherry reporter infection, fluorescence; about a quarter of the inactives have no number | Potency, µM (series often up to 36.5 µM), for inactives: top-dose activity change, negative = inhibition, actives largely listed as inhibitors | 0.63% of 310,000 active | AID 720579, 2013; active = well fitted inhibition curve with a large enough effect; inconclusive = small, poorly fitted or top-dose-only effect; inactive = no such curve, though single readings can be large or run the other way; tested in A549 cells; note: nearly all actives have a fitted effect of over 35% in size; inactives centre near -10
Starred values were filed as active, the others as inactive; i = inactive; ? = inconclusive; . = not tested or not shown; & = joins results of further samples; [ ] = remark or other dose. % is set by controls: 0 for no effect and ±100 for the full control effect; potency is the fitted concentration of half-maximal effect.

Below each compound – Vaccinia Venus, VACV mCherry inh
Brc1ccc(-c2csc(-c3nc(-c4ccc(Br)s4)cs3)n2)cc1
    3.7%, -2.3%
COc1ccc(CCNS(=O)(=O)c2c(C)nc3scc(C)n3c2=O)cc1OC
    -14.0%, -13.3%
CN(C(=O)c1cc2c(s1)-c1ccccc1S(=O)(=O)C2)c1ccccc1F
    -22.3%, ?
CC(NC(=O)c1cc(-c2ccc3c(c2)OCO3)nc2ccccc12)C(C)(C)C (configuration not stated)
    -0.7%, i
COc1ccc(-n2c(SC)nc3sc4c(c3c2=O)CCN(C(C)=O)C4)cc1
    -15.3%, -14.4%
CCC(=O)N1CCN=C1SCc1ccc(Cl)cc1
    -12.4%, -17.3%
O=C1OC(c2ccccc2)/C(=C(/O)c2ccccc2)C1=O (configuration not stated)
    -2.8%, .
O=C(CSc1nnc(-c2ccccc2Cl)o1)N1CCCC1
    18.5%, 13.8%
Cc1cc(F)ccc1NC(=O)CS(=O)(=O)c1cccc2nsnc12
    -5.4%, -10.1%
CCC1Oc2ccc(Cl)cc2N(CC(=O)NCCc2ccc(Cl)cc2)C1=O (configuration not stated)
    -7.8%, i
COc1cccc(-c2cnc3c(c2)C(=O)N([C@H](C)CO)C[C@@H](C)[C@H](CN(C)C(=O)Nc2ccccc2F)O3)c1
    -4.9%, i
COc1ccc(C(=O)COC(=O)/C=C/c2ccccc2)cc1
    -12.1%, -10.2%
CCc1ccccc1NC(=S)N=Nc1c(O)n(C)c2ccc(S(=O)(=O)N3CCOCC3)cc12
    -11.5%, i
O=C(CSc1nc2ccc([N+](=O)[O-])cc2[nH]1)NC1CCCC1
    -10.6%, -21.3%
O=C(N/N=C/C1CC=CCC1)c1cc(Br)ccc1O (configuration not stated)
    -3.4%, -15.5%
Cc1ccc(C(=O)Nc2ccc(C(=O)O)cc2)cc1S(=O)(=O)Nc1cccc([N+](=O)[O-])c1
    5.6%, i
O=C(Cn1c(=O)n(CCCS(=O)(=O)C2CCCCC2)c(=O)c2ccccc21)Nc1ccccc1C(F)(F)F
    1.0%, -6.6%
CCOCCCn1c(=N)c(S(=O)(=O)c2ccc(Cl)cc2)cc2c(=O)n3cccc(C)c3nc21
    -6.6%, -17.8%
COc1ccc(OC)c(-n2nnc3c(sc4nc(C)c(Br)c(C)c43)c2=O)c1
    -11.9%, -24.4%
Cc1ccc(C(=O)N2CC(C)OC(C)C2)cc1[N+](=O)[O-] (configuration not stated)
    -13.8%, -1.9%
COc1ccc(C(=O)N2CCOCC2c2cc(C(=O)NCc3ccccc3)no2)cc1 (configuration not stated)
    -3.8%, 8.6%
O=C(CSc1nnc(CNC(=O)c2ccc(F)cc2)o1)NCc1ccccc1Cl
    -18.9%, -1.8%
COC(C(=O)N/N=C(\C)CC(=O)Nc1ccc(N(C)C)cc1)c1ccccc1 (configuration not stated)
    -0.3%, ?
C=CCC1Cc2c(cccc2[N+](=O)[O-])C(CC=C)N1 (configuration not stated)
    -1.6%, i
Cc1c(C(=O)NN)[nH]c2ccc([N+](=O)[O-])cc12
    ?, -3.2%
CC1=CC2=NC(=O)CC(C)(C(=O)N(CC(=O)NC(C)(C)C)Cc3ccccc3)N2C=C1 (configuration not stated)
    -0.6%, -1.8%
CC(C)(C)CNC(=O)C1(C)CCN1C(=O)c1ccccc1CCc1ccccc1 (configuration not stated)
    -20.7%, 2.6%
Cc1ccc(-n2nnnc2SCC(=O)Nc2ccccc2N2CCCCC2)cc1C
    ?, .
c1cncc(-c2nn3cnnc3s2)c1
    -1.9%, -6.6%
CCC(C)N=C1SCC(C)(/C=N/O)S1 (configuration not stated)
    -5.8%, -15.0%
CCOCCn1c(SCCc2ccccc2)nc2c1c(=O)[nH]c(=O)n2C
    -6.2%, -6.6%
Cc1cccc(SCc2noc(C(=O)NCC3CCCO3)c2C(=O)O)c1 (configuration not stated)
    -11.0%, i
CCOc1ccc(N(CC)C(=O)c2cc3c(=O)oc4ccccc4c3s2)cc1
    -26.5%, -24.1%
Cc1cc(C(=O)NN=C(Cc2ccccc2)Cc2ccccc2)c(C)o1
    -6.3%, i
O=C(CCc1nnc2ccc(NCc3ccco3)nn12)Nc1ccc(F)cc1
    -18.4%, -6.6%
CC(C)(C)NC(=O)NC(=O)CN1CCCc2ccccc21
    -0.9%, -0.6%
CSc1ccccc1NC(=O)COC(=O)CCCOc1ccc(C)cc1
    -14.7%, -10.1%
COc1ccccc1C(CNC(=O)CCNC(=O)c1ccccc1Cl)N1CCCC1 (configuration not stated)
    -1.6%, -11.4%
O=C(NC(=S)NCCC1=CCCCC1)c1cncc(Br)c1
    -17.8%, -22.1%
COc1ccc(C(=O)NCC2(c3ccccc3)CCOCC2)cc1[N+](=O)[O-]
    -5.7%, -6.8%
O=C(Nc1ccc(O)c2c(=O)cc(-c3cccc(Cl)c3)oc12)c1ccc(F)cc1
    -7.2%, i
O=C(CSc1nnc(SCc2ccc(Cl)cc2)s1)c1ccc2c(c1)OCO2
    -21.0%, -23.0%
CC/C(=C\c1ccc(Cl)cc1)c1ccncc1
    3.0%, i
COc1ccccc1C(c1nnnn1C1CCCC1)N1CCN2CCCC2C1 (configuration not stated)
    -17.6%, -3.4%
O=C(Cn1cnc2sc3c(c2c1=O)CCCC3)NCC(=O)Nc1c(F)cc(F)cc1Br
    -2.4%, -18.5%
CCn1c(=O)c2cc(C(=O)N3CCOCC3)sc2c2ccccc21
    -20.4%, i
COc1ccc(C(=O)OCC(=O)Nc2cccc(C(C)=O)c2)c(OC)c1OC
    -3.9%, -9.6%
Cc1nn(CC(=O)NC2CCC(C)CC2)c(=O)c(C#N)c1C (configuration not stated)
    -1.6%, -4.1%
O=C(NNc1nc(-c2ccc(F)cc2)cs1)c1ccccc1
    -14.4%, -16.5%
CC(=NCCCn1ccnc1)C1=C(O)c2ccccc2C1=O
    -9.2%, i

A run of entries taken from the entries so far, as a working copy:
Below each compound – Vaccinia Venus, VACV mCherry inh
COc1ccc(C(=O)OCC(=O)Nc2cccc(C(C)=O)c2)c(OC)c1OC
    -3.9%, -9.6%
Cc1nn(CC(=O)NC2CCC(C)CC2)c(=O)c(C#N)c1C (configuration not stated)
    -1.6%, -4.1%

Following part
Below each compound – Vaccinia Venus, VACV mCherry inh
O=C1CC(c2cccnc2)=NN1c1ccccc1
    -6.6%, -6.7%
O=C(O)CC/C(=C\c1cc([N+](=O)[O-])ccc1Cl)c1nc2ccccc2s1
    -8.2%, -12.6%
COC(=O)c1ccc(NC(=O)CSc2nn3c(=O)c(C)nnc3s2)cc1
    13.6%, -20.7%
O=C(Nc1ccc(/C=C/c2nc3ccccc3o2)cc1)c1c(F)cccc1F
    ?, .
CC(=O)Nc1ccc(N(C(=O)c2ccco2)C(C(=O)NC2CCCCC2)c2ccccc2)cc1 (configuration not stated)
    -14.1%, i
CC1(C)C(=O)OC(c2cc(Br)ccc2O)C(C)(C)C1=O (configuration not stated)
    ?, -16.4%
Cc1ccccc1-c1noc(-c2ccccc2C(=O)O)n1
    -10.8%, -0.1%
S=c1[nH]c2cc3c(cc2[nH]1)OCCO3
    -11.9%, -24.0%
CC(=O)c1cccc(Nc2cc(C)nc3ccc(C)cc23)c1
    -25.3%, -23.0%
O=C(Nc1cc(C2CC2)nn1-c1ccccc1)c1ccc(F)cc1
    -5.6%, -4.1%
COc1ccc(NC(=O)CSCCc2ccccn2)cc1OC
    3.0%, -2.6%
COC(=O)c1ccc(CN2CCOc3ccc(CN4CCC(O)(c5cccnc5)CC4)cc3C2)cc1
    -25.8%, -25.8%
CC(C)CC(=O)Nc1ccc(C(=O)OCc2cc(=O)n3nc(C4CCCCC4)sc3n2)cc1
    -8.7%, -3.5%
C/C=C/c1cccc(-c2nc(C(=O)N3CCCCC3)cc3c2[C@H](CCO)N(C(=O)NC(C)C)C3)c1
    2.1%, -13.9%
OCCCNc1ncnc2c1ncn2[C@H]1CN(Cc2ccc3c(c2)OCO3)C[C@@H](CO)O1
    ?, i
COc1ccc(CCNC(=O)Nc2ccc3c(c2)c(=O)n(C)n3C)cc1OC
    1.0%, i
O=c1c2ccccc2[nH]c(=S)n1Cc1ccccc1
    -12.2%, i
Cc1ccc(NC(=O)CCCCCNS(=O)(=O)c2ccc(C)cc2)cc1
    -26.1%, ?
CC(=O)Nc1cccc(C(=O)/C=C/c2ccc(Br)cc2)c1
    11.2µM*, 22.4µM*
CCOC(=O)C1=C(C)C(c2ccccc2OC)NC(=O)N1 (configuration not stated)
    -18.9%, ?
CC(=O)c1cccc(NC(=O)c2cc(C)nn2-c2ccccc2)c1
    -5.2%, -18.5%
Cc1ccc(NS(=O)(=O)c2cc(C(=O)N3CCOCC3)ccc2C)cc1C
    -3.8%, .
Cc1cc(NC(=O)CSc2ccc3nnc(-c4cccs4)n3n2)no1
    0.7%, i
Cc1ccc2c(c1)N(CC(=O)NC1CCCC1)C(=O)CO2
    2.0%, -3.4%
CN(C(=O)Cn1cc([N+](=O)[O-])ccc1=O)C1CCCCC1
    3.6%, -11.8%
CCC(CO)Oc1cc(NC(=O)c2ccc(Cl)cc2)c2ncn(C(C)C)c2c1 (configuration not stated)
    -23.8%, i
CC(C)(C)NC(=O)C(c1cccnc1)N(C(=O)c1ccc(Cl)nc1)C1CCCC1 (configuration not stated)
    -9.7%, i
CCOc1cc(C2C3=C(CC(C)(C)CC3=O)OC3=C2C(=O)CC(C)(C)C3)cc([N+](=O)[O-])c1O
    -2.7%, 5.7%
CCOC(=O)c1ccc(CN(Cc2ccc(Cl)cc2Cl)S(=O)(=O)c2ccc(F)c(C)c2)cc1
    -5.9%, -5.1%
O=C(Nc1ccc(Cl)cc1)c1cc2c(Cl)nc3ccccc3c2s1
    -3.0%, 0.6%
COc1ccc(CCNC(=O)COC(=O)/C=C/c2ccc(OCC#N)c(OC)c2)cc1
    -10.2%, i
CC1(C)CC(NC(=O)c2cccc(Cl)c2)CC(C)(C)N1
    -12.7%, i
CC(Sc1nc(N2CCOCC2)c2c(c1C#N)CC(C)(C)OC2)C(=O)O (configuration not stated)
    -6.1%, i
CC(=O)OCOC(=O)CN(CC(=O)OCOC(C)=O)c1ccccc1OCCOc1ccccc1N(CC(=O)OCOC(C)=O)CC(=O)OCOC(C)=O
    -15.8%[20.9 µM], -22.9%[20.9 µM]
Cc1cc(C)n2nc(-c3ccco3)nc2n1
    -10.9%, i
Cc1ccnc(NS(=O)(=O)c2ccc(NS(=O)(=O)c3ccc([N+](=O)[O-])cc3)cc2)n1
    -5.4%, i
O=C(C[n+]1cccc2cccc(O)c21)c1ccc2ccccc2c1
    34.8%[activator], 29.9%
COc1ccc(OC)c(CCNC(=O)c2cccc(NC3=NC4CS(=O)(=O)CC4S3)c2)c1 (configuration not stated)
    -13.8%, i
Cc1ccc(SCc2nc(-c3ccncc3)no2)cc1
    -12.3%, -23.3%
Cc1cccc(CN2Cc3cccc4c3[C@H](C=CC4)CC2=O)c1
    -8.9%, i
Cc1cccc(C(=O)NCC(c2ccc3c(c2)OCO3)N2CCN(c3ccccc3F)CC2)c1 (configuration not stated)
    -14.8%, -13.1%
Cc1ccc(S(=O)(=O)N2c3ccc(S(N)(=O)=O)cc3CC2C)cc1 (configuration not stated)
    -18.5%, i
CC1CN(C(=O)CCC(=O)NCc2ccc(Cl)cc2)c2ccccc2O1 (configuration not stated)
    -2.7%, -22.8%
COc1ccccc1N(CC(=O)NCCSCc1ccccc1Cl)S(C)(=O)=O
    -20.7%&-2.7%, 11.6%
CCNc1ccc(P(=O)(c2ccccc2)c2ccccc2)cc1
    -3.2%, -9.2%
COc1ccccc1CN1C(=NC(=O)C2CCCCC2)SC2CS(=O)(=O)CC21 (configuration not stated)
    -7.0%, i
Cc1c(C)n2c(SCC(=O)N3CCOCC3)nnc2[nH]c1=O
    -2.0%, -14.8%
COc1cc2c(cc1OC)/C(=C/C(=O)OCc1ccccc1)OC2
    -11.8%, -15.2%
COc1cccc(C(=O)N2CCOCC2)c1OC
    -1.8%, -4.7%
C=CCN1CC(O)=C(c2nc3ccccc3[nH]2)C1=N
    -4.0%, -14.4%

Continued:
Below each compound – Vaccinia Venus, VACV mCherry inh
Clc1ccc(CSc2ncnc3c2ncn3C2CCCCO2)cc1 (configuration not stated)
    0.7%, -5.8%
CC(NC(=O)c1ccc(Cl)cc1)C1CC2CCC1C2 (configuration not stated)
    4.5%, 3.7%
COc1ccc(-n2c(CN3CCN(c4ccccc4)CC3)nc3ccc([N+](=O)[O-])cc3c2=O)c(OC)c1
    -4.7%, -9.2%
Cc1c(N(C(=O)CNC(=O)c2ccccc2)C2(C(=O)NC3CCCC3)CCCCC2)c(=O)n(-c2ccccc2)n1C
    9.8%, -0.1%
CCOC(=O)c1c(NC(C)=O)c2c3c(sc2n1Cc1cccc(Cl)c1)CCCC3
    -14.9%, -10.3%
Clc1ccc(OCCCN2CCCC2)cc1Cl
    -15.2%, -20.5%
C/C(=N\Nc1cc(N2CCOCC2)ncn1)c1ccc(O)cc1
    -15.5%, -5.9%
O=C(CCCN1C(=O)/C(=C/c2ccccc2Cl)SC1=S)NNC(=O)c1ccc(Cl)cc1
    -13.7%, -6.6%
COC(=O)c1ccc2c(c1)NC(=O)C1CCCN21 (configuration not stated)
    -2.6%, -6.5%

Source: PubChem (National Center for Advancing Translational Sciences (NCATS))
